gsp ag: agonists of gsp mutant (McCune-Albright syndrome). gsp mutant cells, cAMP HTRF, 30 min; control for the full effect not named in the record. Potency, µM (titrated, usually from 76.9 µM), without a hit: at the highest dose activation (cAMP increase), actives largely listed as activators. actives 0.13% (n = 340,000); active = well fitted activation curve with a large enough effect; inconclusive = small, poorly fitted or top-dose-only effect, or another doubt; inactive = no such curve, though single readings can be large or run the other way; cell line not stated here;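 note: phosphodiesterase inhibitor Ro 20-1724 added with compounds to block cAMP breakdown; potency is the fitted concentration of half-maximal effect; nearly all actives have a fitted effect of over 60% in size; about a fifth of the inactives were tested at one dose only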
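Cells in DMEM/10% FBS with G418 were pretreated with compounds in DMSO plus […] (300 uM stock) for 30 min at 37C. cAMP was measured by HTRF (cAMP-d2 plus anti-cAMP antibody-K) after 30 min at room temperature.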
CtBP-E1A inh: blocks the CtBP interaction with E1A | AlphaScreen GST-E1A/His-CtBP binding, 1536-well; stronger effect = lower value; control for the full effect not named in the record | actives 0.49% (n = 340,000) | activity change, % (concentration not given with the values); in the data active means activity change below about -65%; inconclusive means about -30% to -65%; inactive means above about -30%; note: % is set by controls: 0 for no effect and ±100 for the full control effect
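Homogeneous bead-based format: GST-tagged E1A captured on glutathione donor beads, His-tagged CtBP on nickel acceptor beads; compounds precede bead addition by 2 h at 37 °C.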
Six1-Eya2 blk: blocks human Six1 binding to Eya2. Q15475+O00167. AlphaScreen GST-Six1/His-Eya2 binding, biochemical; stronger effect = lower value; control for the full effect not named in the record. activity change, % (no concentration beside the values). actives 0.56% (n = 360,000); in the data active = activity change below about -65%; inconclusive = about -30% to -65%; inactive = above about -30%; note: % is set by controls: 0 for no effect and ±100 for the full control effect; compound concentration not given in the record
Target sequence (O00167 whole entry, looked up): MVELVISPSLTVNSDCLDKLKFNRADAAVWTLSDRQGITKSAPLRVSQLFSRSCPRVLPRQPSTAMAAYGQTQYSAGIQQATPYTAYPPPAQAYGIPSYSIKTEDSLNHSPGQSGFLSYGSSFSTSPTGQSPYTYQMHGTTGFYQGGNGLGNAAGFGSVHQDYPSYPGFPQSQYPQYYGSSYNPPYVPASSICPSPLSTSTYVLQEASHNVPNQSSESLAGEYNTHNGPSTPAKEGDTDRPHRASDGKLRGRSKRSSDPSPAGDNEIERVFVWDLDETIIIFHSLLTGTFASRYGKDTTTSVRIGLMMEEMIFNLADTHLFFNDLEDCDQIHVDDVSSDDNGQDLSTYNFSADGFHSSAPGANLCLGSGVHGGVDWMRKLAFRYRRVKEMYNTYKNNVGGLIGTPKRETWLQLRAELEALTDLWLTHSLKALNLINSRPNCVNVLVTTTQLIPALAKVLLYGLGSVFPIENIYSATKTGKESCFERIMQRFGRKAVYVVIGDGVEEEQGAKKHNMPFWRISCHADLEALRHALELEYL
Target sequence (Q15475 whole entry, looked up): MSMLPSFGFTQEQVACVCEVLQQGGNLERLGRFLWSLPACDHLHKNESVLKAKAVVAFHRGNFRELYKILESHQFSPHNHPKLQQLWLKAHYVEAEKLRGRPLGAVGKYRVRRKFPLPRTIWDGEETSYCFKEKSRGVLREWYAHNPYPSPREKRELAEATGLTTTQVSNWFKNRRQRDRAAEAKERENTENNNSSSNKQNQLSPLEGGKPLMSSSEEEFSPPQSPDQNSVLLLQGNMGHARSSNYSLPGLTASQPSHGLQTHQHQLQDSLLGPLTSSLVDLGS
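AlphaScreen with GST-Six1 and His-Eya2 (5X mix: 250 nM and 500 nM), glutathione donor and nickel acceptor beads; buffer 50 mM Tris pH 8.0, 300 mM NaCl, 1 mM TCEP; 1 h at 37 C in the dark.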
D2 ag: activates the human D2 dopamine receptor; activation, % (no concentration beside the values); actives 0.084% (n = 360,000); DiscoveRx PathHunter D2 beta-arrestin, luminescence, 90 min; 100% = 57 uM dopamine signal; in the data active = activation above about 40%; inconclusive = about 15% to 40%; inactive = below about 15%; note: compound concentration not given in the record; the text of the record calls up to 30% inactive
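DiscoveRx PathHunter D2 beta-arrestin cells (2,100/well) attached overnight, then compound-stimulated 90 min at 37 C in HBSS/10 mM HEPES/0.1% Tween-20 buffer; beta-galactosidase complementation read by luminescence after 1 h at ambient temperature. Dopamine 57 uM final (EC100) as control.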
D2 potentiator: potentiates the human D2 dopamine receptor allosterically; actives 0.23% (n = 360,000); AID 624464; DiscoveRx D2 beta-arrestin cells, luminescence, 90 min; 100% = 57 uM dopamine signal; potentiation, % (test concentration not listed); active = potentiation of 50% or more; inconclusive = 30% to 50%; inactive = 30% or less;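 note: compound concentration not given in the record; tested on top of an EC20 dose of dopamine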
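D2 cells co-treated with compound plus 50 nM dopamine (EC20) for 90 min at 37 deg C to detect potentiation. Beta-arrestin recruitment was read as enzyme-fragment luminescence after 1 h at ambient temperature. Full response was set by 57 uM dopamine.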
gsp antagonist: antagonizes gsp, the McCune-Albright syndrome mutation; gsp-mutant cells, cAMP HTRF, 30 min; control for the full effect not named in the record; Potency, µM (titrated, usually from 76.9 µM), inactives show at the top dose activity change, negative = inhibition, usual class: inhibitors; actives 0.4% (n = 340,000); AID 624288; active = falling curve of any shape with a large fitted effect; inconclusive = falling curve, mostly with a smaller effect; inactive = flat or rising curve; cell line not stated here;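 note: intracellular cAMP measured with PDE inhibitor Ro 20-1724 present during compound exposure; potency is the fitted concentration of half-maximal effect; % is set by controls: 0 for no effect and ±100 for the full control effect; nearly all actives have a fitted effect of over 65% in size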
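G418-selected cells were plated in DMEM/10% FBS for 16-24 h at 37C, then treated with compounds plus the PDE inhibitor […] (300 uM solution added) for 30 min at 37C. Intracellular cAMP was measured by HTRF after 30 min lysis at room temperature.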
* marks the source's active call; other numbers are inactive results; ? = inconclusive; · = no result given; [ ] = dose if it differs, or a comment.

1: CC(=O)Nc1ccc(S(=O)(=O)NC2(C(F)(F)F)C(=O)Nc3c2c(=O)[nH]c(=O)n3Cc2ccccc2)cc1 (stereo not given)
2: CCn1c(=O)n(CC(=O)Nc2cc(OC)c(OC)c(OC)c2)c(=O)c2ccccc21
3: CC(C)C(=O)NC(=S)Nc1ccccc1C(F)(F)F
4: CCCn1nc(NC(=O)COC)c2cc3cccc(C)c3nc21
5: C#CCOCCOCCOCCNc1nc(N2CCN(C(=O)[C@H](CCCCN)n3cc(CCCC)nn3)CC2)nc(N2CCN(C(=O)[C@H](CCCCN)n3cc(CCC(=O)O)nn3)CC2)n1
6: CC12CCC(C1)C(C)(C)C2OC(=O)c1ccccc1C(=O)O (stereo not given)
7: COCC(C)n1c(SCC(=O)NNC(=O)c2ccccc2)nc2ccccc2c1=O (stereo not given)
8: CC(CO)NS(=O)(=O)c1cccc(Cl)c1F (stereo not given)
assay / entry,1,2,3,4,5,6,7,8
gsp ag,?,-13%,-1%,3%,·,-2%,?,-50%[inhibitor]
CtBP-E1A inh,-5,-4,3,·,3,1,5,7
Six1-Eya2 blk,10,-4,2,29,5,3,12,3
D2 ag,-1.9,-1.3,-3.0,0.7,-3.0,-3.7,1.2,-5.7
D2 potentiator,-5,2,-1,4,-16,-8,-13,1
gsp antagonist,9%,-1%,-7%,?,6%,5%,0%,·

9: CNC(=O)NC(=O)CSc1nnc(-c2ccco2)n1Cc1ccccc1
10: CC(Sc1nnc(NCc2ccccc2)s1)C(=O)Nc1ccc2c(c1)C(=O)c1ccccc1C2=O (stereo not given)
11: Cc1cc2c(cc(C(=O)OCC(=O)NCc3ccco3)n2C)s1
12: CCOC(=O)c1[nH]c2ccc(OC)cc2c1NC(=O)c1nonc1C
13: COc1ccc(CCNC(=O)C2CC(=O)N(CCc3ccccc3)C2)cc1OC (stereo not given)
14: Cc1ccc(/C([O-])=C(/C(=S)NCc2ccco2)[n+]2ccccc2)cc1[N+](=O)[O-]
15: CCCCCCCCCCCCCCCC(=O)Nc1ccn(C2OC(CO)C(O)C2O)c(=O)n1 (stereo not given)
16: Cc1ccc(Cn2c(=S)[nH]c3ccccc3c2=O)cc1
assay / entry,9,10,11,12,13,14,15,16
gsp ag,21%,-26%,-3%,-12%,18%,-22%,19%,?
CtBP-E1A inh,1,-82*,-4,-4,4,2,4,4
Six1-Eya2 blk,-2,-66*,-8,5,3,?,-3,4
D2 ag,0.7,5.3,-1.7,-8.1,-4.5,-1.8,-3.3,7.0
D2 potentiator,5,27,-3,14,4,-5,-14,-2
gsp antagonist,7%,7%,4%,0%,4%,-3%,11%,0%

The list goes on; it opens with the two that closed the last part.
15: CCCCCCCCCCCCCCCC(=O)Nc1ccn(C2OC(CO)C(O)C2O)c(=O)n1 (stereo not given)
16: Cc1ccc(Cn2c(=S)[nH]c3ccccc3c2=O)cc1
17: COc1cc(-c2nnc(CSc3nnc4nc(C)cc(C)n34)o2)cc(OC)c1OC
18: Cc1ccc(S(=O)(=O)NCC(=O)OC(C)C(=O)NC2CCCCC2C)cc1C (stereo not given)
19: O=C(CSc1nnnn1-c1ccccc1)c1ccco1
20: OCC#Cc1cnc2ccccc2c1
21: Cc1c2n(c3ccccc13)CCN(C)C2
22: CC(C)C[C@H](N)c1nnc(SCc2ccc(Cl)cc2)o1
23: Cc1cc(NC(=O)Cc2ccsc2)ccc1Br
24: CC1CCN(S(=O)(=O)N2CCC(C(=O)NCc3cccnc3)CC2)CC1
assay / entry,15,16,17,18,19,20,21,22,23,24
gsp ag,19%,?,12%,?,12%,18%,·,10%[15.4 µM],-1%,-16%
CtBP-E1A inh,4,4,-6,7,·,0,0,5,7,-3
Six1-Eya2 blk,-3,4,1,-2,1,9,-8,8,4,3
D2 ag,-3.3,7.0,2.0,-5.6,-4.3,0.4,0.8,4.1,-0.6,-1.5
D2 potentiator,-14,-2,4,-24,-4,8,-13,-7,-9,-10
gsp antagonist,11%,0%,5%,-16%,41%[activator],8%,0%,-5%,-20%,6%

Complete entries as entered above.
O=C(CSc1nnnn1-c1ccccc1)c1ccco1 across the screens: gsp ag: 12%; CtBP-E1A inh: ·; Six1-Eya2 blk: 1; D2 ag: -4.3; D2 potentiator: -4; gsp antagonist: 41%[activator]
COc1cc(-c2nnc(CSc3nnc4nc(C)cc(C)n34)o2)cc(OC)c1OC across the screens: gsp ag: 12%; CtBP-E1A inh: -6; Six1-Eya2 blk: 1; D2 ag: 2.0; D2 potentiator: 4; gsp antagonist: 5%
Cc1c2n(c3ccccc13)CCN(C)C2 across the screens: gsp ag: ·; CtBP-E1A inh: 0; Six1-Eya2 blk: -8; D2 ag: 0.8; D2 potentiator: -13; gsp antagonist: 0%

The results go on.
25: COc1ccc(CCNC(=O)CN(c2ccccc2OC)S(C)(=O)=O)cc1OC
26: CN(Cc1cccnc1)Cc1cn(C)nc1-c1ccc(Oc2ccccc2)cc1
27: Nc1nc(CN2CCCCC2)cs1
28: O=C(O)C1C2CCC(C2)C1C(=O)NCCC1=CCCCC1 (stereo not given)
29: Cc1ccccc1Cn1nc(C)c(NC(=O)/C=C/c2cnn(C)c2C)c1C
30: COc1cccc(N(C(=O)c2csnn2)C(C(=O)NC2CCCC2)c2ccccc2)c1 (stereo not given)
31: O=C(Cn1c(=O)oc2ccccc21)c1ccccc1
32: CC(Sc1nnnn1C)C(=O)Nc1ccccc1-c1ccccc1 (stereo not given)
assay / entry,25,26,27,28,29,30,31,32
gsp ag,-32%[inhibitor],16%,11%,20%,13%,25%[15.4 µM],0%,-11%
CtBP-E1A inh,7,-24,7,-2,2,0,11,0
Six1-Eya2 blk,0,-3,-10,-10,12,-4,6,6
D2 ag,-3.8,0.7,1.1,-3.8,-1.7,-2.4,0.4,0.6
D2 potentiator,-16,-5,-5,9,-11,-10,21,2
gsp antagonist,-1%,-5%,-4%,3%,12%,-39%,-6%,0%

33: O=C1C=CC(=C(c2ccc(O)cc2)c2ccc(O)cc2)C=C1
34: COc1cccc(C2c3[nH]c4ccccc4c3C[C@H]3C(=O)N(CCCCCO)CC(=O)N23)c1 (stereo not given in full)
35: Cc1nnc(NC(=O)c2ccc(S(=O)(=O)N3CCc4ccccc4C3)cc2)o1
36: COc1ccc(-c2nnc(NC(=O)CS(=O)(=O)c3ccc(F)cc3)o2)cc1
37: Cc1ccccc1-c1nnn(CC(=O)c2ccc(S(=O)(=O)N3CCCC3)cc2)n1
38: COc1cc(NC(=O)CN2CCN(Cc3ccc4c(c3)OCO4)CC2)cc(OC)c1
39: C[C@H](CO)N1C[C@H](C)[C@@H](CN(C)CC2CCOCC2)Oc2ncc(Br)cc2C1=O
40: Cc1cc(-c2c(C(=O)N3CCOCC3)c(C)nn2-c2ccccc2)no1
assay / entry,33,34,35,36,37,38,39,40
gsp ag,24%,-41%[inhibitor],-1%,8%[15.4 µM],-16%,-4%[15.4 µM],12%,1%[15.4 µM]
CtBP-E1A inh,6,0,-30,?,-2,-10,4,-5
Six1-Eya2 blk,1,0,-10,?,-3,-14,1,-14
D2 ag,-3.3,9.5,-4.5,-5.4,-1.5,-2.8,-2.5,1.2
D2 potentiator,-3,-1,-4,10,9,-21,-1,-2
gsp antagonist,5%,-9%,-6%,-5%,?,10%,·,8%

41: CCC(c1nc2ccccc2[nH]1)N(C(=O)C1=NNC(=O)CC1)c1ccccc1 (stereo not given)
42: COC(=O)C(COC(=O)c1c(F)cccc1F)NC(=O)c1c(F)cccc1F (stereo not given)
43: O=C(c1n[nH]c(=O)c2ccccc12)N1CCN(C2c3ccccc3-c3ccccc32)CC1
44: NC(CSC(c1ccccc1)(c1ccccc1)c1ccc(-c2ccccc2)cc1)C(=O)O (stereo not given)
45: CC(C)Cn1cc(C(=O)NCCCN2CCCC2=O)c2c3ccccc3n(C)c2c1=O
46: COc1cc(NC(=O)c2cnn3c(C)cc(C)nc23)c(OC)cc1Cl
47: Cc1ccc2cc(CCNC(=O)C(C)C)c(=O)[nH]c2c1C
48: O=C(/C=C/c1ccco1)Nc1ccc(S(=O)(=O)N2CCOCC2)cc1
49: COc1cc(C(C(=O)NC2CCCC2)N(Cc2ccccc2)C(=O)c2snc(C(N)=O)c2N)ccc1O (stereo not given)
50: O=C(COC(=O)c1cc([N+](=O)[O-])ccc1N1CCOCC1)Nc1ncc(Cl)cc1Cl
assay / entry,41,42,43,44,45,46,47,48,49,50
gsp ag,·,-41%[inhibitor],-2%,-10%,-1%,-19%,0%,7%,-10%[15.4 µM],19%
CtBP-E1A inh,3,·,-1,3,-7,-1,2,-1,-15,-4
Six1-Eya2 blk,-4,5,-6,-6,-2,-1,-1,-3,-9,7
D2 ag,2.2,1.2,-0.3,3.9,-3.6,-1.7,1.8,2.7,2.1,4.1
D2 potentiator,-1,2,-1,-7,-10,0,-1,-1,-2,-2
gsp antagonist,·,-1%,-31%,·,-7%,4%,2%,6%,?,-3%

Screening results: PubChem BioAssay, National Center for Advancing Translational Sciences (NCATS)
